GLP1R cytotox: cytotoxicity counter-screen for GLP-1 receptor inverse agonists; AID 624418; HEK293 cAMP-luciferase reporter cells, luminescence, 24 h; Potency, µM (titrated, usually from 38.3 µM), without a hit: at the highest dose activity change, negative = inhibition, actives largely listed as inhibitors; 410,000 compounds, 0.13% hits;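 also: loss of luciferase light is scored as toxicity; potency is read from the fitted curve at half-maximal effect; % is scaled to controls: 0 for no effect and ±100 for the full control effect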
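MLSMR compounds, 24 hr on cells at 37 deg C/5% CO2; luminescence after luciferase reagent (12 min RT). Inhibition counted as the undesired cytotoxic outcome.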
IL1B secr inh: blocks inflammasome-driven IL-1 beta release. 360,000 compounds, 4.7% hits. AID 743279. THP-1 LPS/ATP IL-1B secretion, AlphaLISA, 16 h; hits give low values. activity change, % at 57.5 µM; in the data active = activity change below about -50%; inconclusive = mostly about -30% to -49%; also: % is scaled to controls: 0 for no effect and ±100 for the full control effect
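THP-1 cells pretreated 1 hr with compounds (up to 57.5 uM final), then stimulated with LPS (250 ng/mL final) plus ATP (1.25 mM final); secreted IL-1B measured by AlphaLISA after 16 hr, decreased signal indicating inhibition.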
KB-3-1 tox: kills parental KB-3-1 adenocarcinoma cells. KB-3-1 viability, CellTiter-Glo ATP luminescence, 72 h. Potency, µM (series often up to 46.1 µM), for inactives: top-dose activity change, negative = cytotoxic, hits mostly cytotoxic. 400,000 compounds, 1.4% hits; also: potency is read from the fitted curve at half-maximal effect; % is scaled to controls: 0 for no effect and ±100 for the full control effect; nearly all actives have a fitted effect of over 60% in size
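Cytotoxicity measured as CellTiter-Glo luminescence after 72 h at 37 C. Compound titrations were pinned onto drug-naive KB-3-1 parental adenocarcinoma cells grown in DMEM with 10% FBS, and normalized data fitted to concentration-response curves.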
SW480 rerep: induces DNA re-replication in SW480 colon adenocarcinoma cells; SW480 DNA re-replication, Hoechst DNA content imaging, 48 h; Potency, µM (highest dose often 46.1 µM), for inactives: at the top dose re-replication activation, actives largely listed as activators; 340,000 compounds, 1.8% hits; AID 624297; also: potency is read from the fitted curve at half-maximal effect; % of control where 0% means no effect; nearly all actives have a fitted effect of over 55% in size
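250 cells/well; 23 nL cpd via pin tool; 48 hr, 37 C, 5% CO2; Hoechst 40 min; imager read of total nuclear intensity, ex 405/em 500-530 nm.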
KB-V1 MDR tox: KB-V1 MDR subline cytotoxicity. KB-V1 MDR cells viability, CellTiter-Glo, 72 h. 400,000 compounds, 3.4% hits. Potency, µM (highest dose often 46.1 µM), inactives show at the highest dose activity change, negative = cytotoxicity, most hits filed as cytotoxic; also: potency is read from the fitted curve at half-maximal effect; % is scaled to controls: 0 for no effect and ±100 for the full control effect; nearly all actives have a fitted effect of over 60% in size
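Following 72 h at 37 degrees C with compound, KB-V1 cell viability was read by CellTiter-Glo luminescence, medium being phenol-red-free DMEM plus 10% FBS; concentration-response parameters came from normalized, curve-fitted qHTS data.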
* hit, by the source's call; ? = inconclusive; · = no result given; & = joins results of further samples; [ ] = another dose, or the depositor's remark. Unless noted, calls follow the shape of the dose curve; as a rule, active = well fitted curve in the direction sought with a large enough effect; inconclusive = small, poorly fitted or top-dose-only effect, or another doubt; inactive = no such curve, though single readings can be large; an effect the other way counts as inactive or inconclusive. An excerpt. The share of hits here may be higher or lower than overall.

SMILES	GLP1R cytotox	IL1B secr inh	KB-3-1 tox	SW480 rerep	KB-V1 MDR tox
C[C@H](CCC(=O)O)[C@H]1CC[C@H]2[C@@H]3[C@H](O)C[C@@H]4C[C@H](O)CC[C@]4(C)[C@H]3C[C@H](O)[C@]12C	1.0%&0.5%&0.3%	19.9&23.8&-9.9	0.0%&0.0%&0.0%	-32.0%&-5.8%&-0.6%[inhibitor]	11.0%&5.3%&0.6%
CC(=O)OCC(=O)[C@@]12OC(C)(C)O[C@@H]1CC1C3C[C@H](F)C4=CC(=O)C=CC4(C)[C@@]3(F)C(O)CC12C (some centres not stated)	-17.3%	-28.5	0.0%	-0.1%	-8.6%
O=C(O)c1cc(-c2ccccc2)nc2ccccc12	-2.4%	6.2	0.0%	0.7%&-60.9%&-2.2%	-0.3%
CC(C)NCC(O)COc1cccc2ccccc12 (configuration not stated)	-2.9%	7.6	0.0%	-2.4%	1.8%
Nc1ccn([C@@H]2O[C@H](CO)[C@@H](O)C2O)c(=O)n1 (some centres not stated)	-10.0%	63.0	-4.0%	?	-5.7%
O=C(O[C@H]1CN2CCC1CC2)N1CCc2ccccc2[C@@H]1c1ccccc1	·	·	·	3.5%	·
CC(CCC(=O)O)C1CCC2C3C(O)CC4CC(O)CCC4(C)C3CC(O)C12C (configuration not stated)	9.0%	18.3	0.0%	-1.0%	13.2%
COc1ccc(C2=CC(=O)C[C@H](c3ccc4c(c3)OCO4)C2)cc1	-3.2%	-9.6	-0.4%	-12.3%	-1.3%
CC(C)[N+]1(C)[C@@H]2CC[C@@H]1CC(OC(=O)C(CO)c1ccccc1)C2 (some centres not stated)	-4.1%	5.3	0.0%	-0.6%	3.3%
NC(=O)c1cccnc1	10.4%	-21.2	0.0%	-22.8%&-3.5%	0.9%
CCN1CC2=C(OC(N)=C(C#N)C2c2cccs2)/C(=C\c2cccs2)C1 (configuration not stated)	12.5%	?	0.0%	-0.1%	-26.0%
O=C(O)COCCN1CCN([C@H](c2ccccc2)c2ccc(Cl)cc2)CC1	2.6%	-3.9	-3.4%	-49.5%[inhibitor]	0.8%

Rewritten as a markdown table: part of the list above
| SMILES | GLP1R cytotox | IL1B secr inh | KB-3-1 tox | SW480 rerep | KB-V1 MDR tox |
| --- | --- | --- | --- | --- | --- |
| C[C@H](CCC(=O)O)[C@H]1CC[C@H]2[C@@H]3[C@H](O)C[C@@H]4C[C@H](O)CC[C@]4(C)[C@H]3C[C@H](O)[C@]12C | 1.0%&0.5%&0.3% | 19.9&23.8&-9.9 | 0.0%&0.0%&0.0% | -32.0%&-5.8%&-0.6%[inhibitor] | 11.0%&5.3%&0.6% |
| CC(=O)OCC(=O)[C@@]12OC(C)(C)O[C@@H]1CC1C3C[C@H](F)C4=CC(=O)C=CC4(C)[C@@]3(F)C(O)CC12C (some centres not stated) | -17.3% | -28.5 | 0.0% | -0.1% | -8.6% |
| O=C(O)c1cc(-c2ccccc2)nc2ccccc12 | -2.4% | 6.2 | 0.0% | 0.7%&-60.9%&-2.2% | -0.3% |

Among those listed so far, these contain a halogen.
SMILES	GLP1R cytotox	IL1B secr inh	KB-3-1 tox	SW480 rerep	KB-V1 MDR tox
CC(=O)OCC(=O)[C@@]12OC(C)(C)O[C@@H]1CC1C3C[C@H](F)C4=CC(=O)C=CC4(C)[C@@]3(F)C(O)CC12C (some centres not stated)	-17.3%	-28.5	0.0%	-0.1%	-8.6%
O=C(O)COCCN1CCN([C@H](c2ccccc2)c2ccc(Cl)cc2)CC1	2.6%	-3.9	-3.4%	-49.5%[inhibitor]	0.8%

Screening data as filed in PubChem.
